# T cruzi inh = inhibitors of intracellular T. cruzi growth, primary screen, luminescence, NIH3T3 host cells; T. cruzi beta-gal in NIH3T3, 90 h; inhibition, % (concentration not given with the values); 300,000 tested, 1.4% active;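 active = mean inhibition across valid replicates above about 55%, limit read from the data; inconclusive = mean below that limit but half or more replicates reach it; inactive = mean below it, under half of replicates reach it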;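 also: signal also drops with host cell toxicity which is not excluded here; 0% = plate median of DMSO wells and 100% = zero luminescence signal; higher percent means less beta-gal luminescence so fewer parasites; stock transfer was 50 nL into about 50 µL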
# ALR H2O2 inh = inhibitors of human ALR sulfhydryl oxidase, primary screen, biochemical, H2O2 detection, HRP-luminol luminescence, single point. purified ALR, DTT oxidation. 290,000 tested, 3.8% active. inhibition, % (concentration not given with the values). FAD-linked sulfhydryl oxidase ALR (Homo sapiens), P55789;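 active = mean and each replicate at 75% or more; inconclusive = only one of the two met; inactive = neither met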;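 also: stock transfer was 7.5 nL into about 7.5 µL; 0% = neutral wells and 100% = wells with inactivated enzyme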
# Target sequence (P55789 whole entry, looked up): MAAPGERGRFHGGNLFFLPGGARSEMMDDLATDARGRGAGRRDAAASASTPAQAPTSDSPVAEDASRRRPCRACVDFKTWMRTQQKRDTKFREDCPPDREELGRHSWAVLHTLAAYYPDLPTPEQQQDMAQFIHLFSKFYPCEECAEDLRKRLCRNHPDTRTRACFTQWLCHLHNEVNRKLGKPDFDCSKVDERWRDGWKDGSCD
# rRNA inh HTS = reduced GFP signal of wild-type E. coli, primary screen, bacterial rRNA inhibitor project, GFP/RFP fluorescence, OD600, single point. AID 720706, 2013. GFP signal change (wild-type ribosome), % (concentration not given with the values). 350,000 tested, 1.6% active. E. coli WT GFP vs humanized-ribosome RFP mutants, 24 h; stronger effect = lower value; DMSO median 0, no signal -100;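 active = significant combined selectivity score with lowered wild-type GFP, culture density cut under 30%, mutant RFP and density less affected; inactive = any of these conditions unmet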; also: one replicate is shown; some compounds called inactive have numbers as strong as hits
# FGF22 binding = binders of human FGF22 protein, primary screen, FGF22 synaptogenesis inhibitor project, biophysical, thermal shift, single point; Fibroblast growth factor 22 (Homo sapiens), Q9HCT0; recombinant FGF22 thermal shift, SYPRO orange fluorescence; percent of sucrose octasulfate shift, DMSO zero; calls only at 9.99 µM; 340,000 tested, 1.5% active;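 active = melting point raised past a set limit in the mean and every replicate; inconclusive = no clear call; three in four hits are not shown here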
# Target sequence (Q9HCT0 whole entry, looked up): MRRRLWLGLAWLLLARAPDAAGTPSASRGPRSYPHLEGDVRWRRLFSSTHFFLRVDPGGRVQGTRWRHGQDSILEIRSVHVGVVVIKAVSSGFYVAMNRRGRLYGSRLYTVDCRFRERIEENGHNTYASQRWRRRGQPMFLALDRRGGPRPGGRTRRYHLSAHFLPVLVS
# RanGTP-Imp inh = inhibitors of RanGTP-importin-beta interaction, primary screen, biochemical, FRET, CFP-Ran, YFP-importin-beta, homogeneous; Ran GTPase (GTP-bound) - importin-beta complex; cell-free CFP-Ran/YFP-importin-beta FRET ratio; inhibition, % (test concentration not listed); 300,000 tested, 1.1% active;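 active = most replicates above 15%; inconclusive = exactly half above 15%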;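 also: 0% = DMSO wells and 100% = Ran loaded with GDP instead of GTP; wells of about 40 µL received 100 nL stock; the first replicate is given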
# Beta cell apopt = inhibitors of cytokine-induced beta cell apoptosis, primary screen, luminescence; INS-1E cytokine-induced death, ATP luminescence, 48 h; percent of positive-control rescue, neutral wells zero; protection from apoptosis, % (no concentration beside the values); 300,000 tested, 0.8% active;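 active = all replicates at 75% or more, or half of them and the mean; inconclusive = half reach 75% but not the mean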;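 also: 0% = cytokine-treated negative control wells and 100% = positive control rescue; higher means more ATP so stronger rescue from cytokine killing; wells of about 40 µL received 100 nL stock; the first replicate is given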
# AF4-AF9 inh = inhibitors of AF4 peptide binding to AF9, primary screen, biochemical, AlphaScreen, biotin-AF4 peptide, FLAG-AF9, single point. inhibition, % at 10 µM. 350,000 tested, 0.47% active. AID 651704, 2012;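 active = every replicate reaching a set inhibition limit, whatever the replicate mean, cut at about 25% in these data; inconclusive = mean inhibition reaches that limit but some replicates miss it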;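 also: 0% = plate neutral control median and 100% = total signal loss; the record names both 10 and 1 µM as test concentration; the first replicate is given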
# Target sequence (P42568 whole entry, looked up): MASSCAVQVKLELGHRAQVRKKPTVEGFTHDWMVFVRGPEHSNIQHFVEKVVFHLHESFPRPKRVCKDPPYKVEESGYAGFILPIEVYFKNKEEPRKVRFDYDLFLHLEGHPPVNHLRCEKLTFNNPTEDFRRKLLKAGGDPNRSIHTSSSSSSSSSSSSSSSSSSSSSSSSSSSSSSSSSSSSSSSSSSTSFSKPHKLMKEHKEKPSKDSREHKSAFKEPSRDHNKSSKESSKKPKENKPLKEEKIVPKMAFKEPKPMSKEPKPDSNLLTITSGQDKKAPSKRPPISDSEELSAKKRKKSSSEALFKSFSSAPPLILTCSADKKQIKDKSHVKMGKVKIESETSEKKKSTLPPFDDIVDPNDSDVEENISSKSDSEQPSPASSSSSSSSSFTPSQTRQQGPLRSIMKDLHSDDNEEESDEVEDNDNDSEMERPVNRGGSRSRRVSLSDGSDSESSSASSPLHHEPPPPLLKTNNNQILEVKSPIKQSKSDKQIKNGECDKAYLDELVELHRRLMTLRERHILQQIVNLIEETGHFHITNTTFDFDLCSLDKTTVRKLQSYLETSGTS
# Calb FLC = C. albicans growth inhibition with fluconazole, primary screen, CaCi-2 strain, Alamar Blue fluorescence. C. albicans CaCi-2 (fluconazole-resistant clinical isolate) + fluconazole, 48 h. growth inhibition, % (test concentration not listed). 300,000 tested, 0.57% active;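 active = most replicates above 75%; inconclusive = exactly half above 75%; inactive = most below 75%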;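 also: all wells also contain fluconazole at 8 µg/ml as a sub-toxic cotreatment; 0% = median of DMSO wells and 100% = median of geldanamycin control wells; wells of about 8 µL received 7.5 nL stock; the first replicate is given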
# rRNA inh HTS OD600 = also measured in rRNA inh HTS; calls as there; OD600 change, %; measured here: OD600 growth;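 optical density of the mix in the first replicate; 0 = DMSO median and -100 = no signal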
# rRNA inh HTS RFP = further read-out of rRNA inh HTS, marked with its call; RFP signal change, %; measured here: RFP humanized mutant strains;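 first replicate; 0 = DMSO median and -100 = no signal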
# Numbers without * were called inactive; i = inactive; ? = inconclusive; / = not tested or not shown.
SMILES,T cruzi inh,ALR H2O2 inh,rRNA inh HTS,rRNA inh HTS OD600,rRNA inh HTS RFP,FGF22 binding,RanGTP-Imp inh,Beta cell apopt,AF4-AF9 inh,Calb FLC
CC(=O)NC(=O)COC(=O)/C=C/c1c(C)nn(Cc2c(Cl)cccc2Cl)c1Cl,1,/,/,/,/,/,-4.1,2,/,8
CCc1ccc(-n2c(SCC(=O)N3CCC(C(=O)O)CC3)nnc2-c2ccncc2)cc1,-11,1,1,4,-2.6,i,-2.2,-6,-0.4,-1
CCn1c(CN2CCN(CCO)CC2)nc2ccccc21,14,-7,/,/,/,i,1.7,0,-0.6,-7
O=c1c2ccccc2sc2ccc(Cl)cc12,-2,-4,17,9,-6.1,i,20*,-2,-3.3,-1
N#CC(c1ccc(Cl)nn1)c1ccc(Cl)cc1Cl (stereo not given),4,/,/,/,/,/,4.1,-7,/,26
Cc1ccc(CNC(=O)Nc2ccc(F)cc2)n1C,-9,-7,9,14,3.3,i,?,4,-2.6,-4
O=C(CCl)Nc1cccc(S(=O)(=O)NC2=NCCCCC2)c1,/,/,17,15,-2.3,i,/,-18,-3.2,/
COCCNc1nc2c(c(=O)n(Cc3cccc(Cl)c3)c(=O)n2C)n1C,1,4,4,5,-2.8,i,1.9,6,-1.0,-8
CCC1CCCCN1C(=S)NC(=O)c1cccs1 (stereo not given),-2,/,5,-12,-1.3,i,-2.7,/,-8.0,10
COc1ccc(N/C=C/C(=O)c2ccc3c(c2)OCO3)cc1OC,-9,12,/,/,/,/,3.9,3,/,-3
Cc1cc(OC(C)C(=O)N2CCN(c3ccc(F)cc3)CC2)c2c(C)c(C)c(=O)oc2c1 (stereo not given),5,0,3,-1,0.4,i,0.9,3,-0.8,-5
CCOc1ccccc1NC(=O)C(OC(=O)c1cnccn1)c1ccccc1 (stereo not given),-4,-5,5,8,0.3,i,1.7,6,-3.2,-2
CCCn1cnnc1CNC(=O)C1CCC(=O)N(CCc2cccc(F)c2)C1 (stereo not given),-6,1,13,9,2.7,i,-1.5,0,-4.1,8
COC1=CCC2([N+](=O)[O-])CN(CC(=O)O)CC1([N+](=O)[O-])C2 (stereo not given),-30,-6,/,/,/,/,5.2,1,/,0
CCOC(=O)c1ccc(S(=O)(=O)NNS(=O)(=O)c2ccc(C)cc2)cc1,0,15,26,22,1.5,i,-1.2,5,-2.4,-6
Cc1c2c(nc3ccccc13)CCC(C)C2 (stereo not given),-12,3,-7,1,-4.9,i,8.9,-1,-6.0,0
Cc1ccc2c(c1)COc1c3ccc(C(=O)N[C@@H](C)CO)cc3nn1-2,-2,8,1,3,1.0,i,4.5,0,-5.0,3
CC(C)Cc1cc(C(=O)Nc2cc(Br)ccc2O)no1,-10,-1,-3,-51,-21,i,2.4,-22,-1.7,-2
CCOC(=O)c1oc2ccccc2c1COC(=O)CNC(=O)c1cccc(C)c1,-2,2,-5,-5,-2.3,i,0.1,-3,0.4,-12
CC(=O)NC1(NC(C)=O)CCN(C)C(c2ccccc2)C1C (stereo not given),-6,-21,/,/,/,/,-1.7,-1,/,6
C=CCSc1nnc(NC(=O)C23CC4CC(CC(NC(C)=O)(C4)C2)C3)s1,23,-7,-3,-10,0.7,i,1.2,-1,1.9,-27
CCOc1cc(N2CCOCC2)c(OCC)cc1NC(=O)CSc1nnc(N)s1,/,3,0,4,-0.4,i,/,0,-2.7,/
COc1cc(/C=N/NS(=O)(=O)c2ccccc2)ccc1OS(=O)(=O)c1ccc(C)cc1,6,-3,/,/,/,i,0.1,4,3.2,-7
COc1ccc(C2CC(c3ccc([N+](=O)[O-])cc3)=NN2C(C)=O)cc1 (stereo not given),4,-17,-7,-2,-2.8,i,-1.6,7,-2.6,0
O=C(NCc1ccccc1)C(Cc1ccccc1)NS(=O)(=O)c1cccc2nsnc12 (stereo not given),-7,-1,/,/,/,/,-3.4,-1,/,-9
SMILES,T cruzi inh,ALR H2O2 inh,rRNA inh HTS,rRNA inh HTS OD600,rRNA inh HTS RFP,FGF22 binding,RanGTP-Imp inh,Beta cell apopt,AF4-AF9 inh,Calb FLC
CCN(CC)S(=O)(=O)c1ccc2c(c1)c(=O)c(C(=O)N1CCc3ccccc3C1)cn2C,17,-10,5,5,-1.3,/,-0.7,-1,/,-2
COc1cccc(CN2CCNC(=O)C2CC(=O)NCCN2CCOCC2)c1OC (stereo not given),-15,-1,8,4,2.5,i,1.5,-2,-2.1,-4
CC(=O)c1c(C)[nH]c(C(=O)N2CCc3ccccc3C2)c1C,11,-3,/,/,/,/,-5.7,-10,/,-2
Cc1cc(NC(=O)c2cccc(S(=O)(=O)N3CCCCCC3)c2)no1,0,1,/,/,/,/,-1.0,-2,/,-5
O=C(Nc1ccc2c(c1)oc1ccccc12)c1ccc2c(c1)OCO2,-4,-7,/,/,/,/,8.2,15,/,-6
Cc1c(Cl)c(C(=O)N2CCCc3ccccc32)nn1C,3,-4,-9,-16,-7.5,/,-2.2,-2,/,-4
CCSc1ccccc1C(=O)NCc1ccco1,-7,0,/,/,/,/,-1.1,-5,/,-14
CN(CC(=O)Nc1ccc(N2CCOCC2)cc1)C(=O)CCc1cc(C(C)(C)C)c(O)c(C(C)(C)C)c1,-1,-2,-4,-5,-1.5,/,-1.2,7,11,/
COc1ccc(N(CC(=O)NCc2ccc3c(c2)OCO3)C(=O)c2csnn2)cc1,-9,0,1,4,-1.2,i,1.4,3,-4.9,-30
COc1ccc(C(=O)CSc2nnc(CNC(=O)c3ccc(OC)cc3)n2C)cc1,16,17,4,2,-1.4,i,-1.8,3,-3.2,-14
Cc1nc2c(cc1C#N)C(=O)c1ccccc1-2,-5,/,9,6,1.8,i,-1.0,2,0.9,-16
COc1ccc(N2CC(C(=O)Nc3nnc(SCC(=O)NC4CCCC4)s3)CC2=O)cc1 (stereo not given),14,7,0,-3,-1.6,i,6.7,2,-1.3,-9
COc1cc(/C=N/NC(=O)C(=O)Nc2ccccn2)ccc1O,3,?,/,/,/,/,0.9,-5,/,-4
COc1ccc(Nc2ncnc3sccc23)cc1OC,-7,-141,8,2,-3.3,i,-3.1,-3,2.9,/
CCN(CC)CC(=O)Nn1c(C)nc2c(ncn2-c2ccccc2)c1=O,-19,-10,3,9,0.0,i,3.7,-3,-0.4,-8
COc1cc(-c2nnc3sc(-c4cccs4)nn23)cc(OC)c1OC,44,/,/,/,/,/,-0.8,29,/,4
CCn1c(Oc2ccc(F)cc2)nc2c1c(=O)n(C)c(=O)n2C,-7,-1,-2,0,-4.8,i,-0.7,-13,-9.4,-9
O=C(CN(Cc1cccs1)S(=O)(=O)c1ccc(S(=O)(=O)NC2CCCCC2)cc1)Nc1ccccc1,57*,-4,/,/,/,/,-2.1,38,/,-1
O=C(Nc1ccccc1F)c1coc(=O)c(Br)c1,-13,-2,27,12,5.6,/,-1.6,-5,-6.0,-8
O=C(NC(NC(=O)c1ccccc1)c1ccccc1)c1ccccc1,7,1,12,9,-3.7,i,5.7,4,1.4,-4
Cc1nc2ccccc2c(=O)n1NCc1cc(Br)cs1,8,0,19,8,-1.2,i,?,10,9.3,9
CCc1nnc(NC(=O)COc2ccc(N(C)S(=O)(=O)c3ccc(C)cc3)cc2)s1,6,/,10,7,2.5,i,-1.7,/,-0.8,35
CN(C)c1ccc(NC(=O)CN2C(=O)c3ccccc3C2=O)cc1,-5,39,2,-2,1.5,/,-1.2,-1,-3.4,3
COc1ccc(CCC(=O)Nc2ccc(S(=O)(=O)N3CCCC3)cc2)cc1OC,/,-4,/,/,/,i,/,-6,-4.7,/
Cn1c2ccccc2c(=O)c2ccc(C#Cc3ccccn3)cc21,50,-1,-4,-11,-2.1,i,97*,16,-4.7,1
SMILES,T cruzi inh,ALR H2O2 inh,rRNA inh HTS,rRNA inh HTS OD600,rRNA inh HTS RFP,FGF22 binding,RanGTP-Imp inh,Beta cell apopt,AF4-AF9 inh,Calb FLC
COc1ccc(C)cc1-n1nnnc1SCC(=O)Nc1cc(C)on1,0,-9,5,-3,-8.4,i,4.3,-5,6.3,9
Cc1nccn1CC(=O)N/N=C/c1cccc(O)c1,-8,-14,/,/,/,/,-2.5,-8,/,-13
CCc1ccc(C(=O)COC(=O)CCc2nc3ccccc3c(=O)[nH]2)cc1,-20,0,/,/,/,/,?,-5,/,9
COc1ccc(-n2cnc3sc4c(c3c2=O)CCCC4)cc1,8,3,-20,-14,-2.3,i,-2.1,4,-1.5,-5
Cc1c(C(=O)NCCSCc2ccc(Cl)cc2Cl)cccc1[N+](=O)[O-],-3,-7,/,/,/,/,-1.6,11,/,-1
COc1ccc(C2(c3ccc(OC)cc3)NC(=O)N(CC(=O)NC3CCCC3)C2=O)cc1,-5,-10,6,6,2.2,/,0.4,-5,1.1,0
Cc1ccccc1/C=C/c1nc2ccccc2c(=O)[nH]1,-10,/,8,10,17,i,?,2,-0.7,-4
O=C1NC(c2ccccc2Cl)=N/C1=C/c1ccco1,4,-12,8,-7,11,i,4.0,0,4.7,-1
COC(=O)c1ccc(CN(C)S(=O)(=O)c2cccs2)cc1,-11,25,-11,-8,-0.6,i,3.4,-1,-0.5,-8
CO/N=C(/CS(=O)(=O)Cc1ccccc1Cl)c1ccc(Cl)cc1Cl,12,-2,/,/,/,/,-0.6,2,/,23
CCCC(=O)NCc1ccc2c(c1)cc(C)n2C,-5,-24,/,/,/,/,6.1,1,/,12
CN(C)S(=O)(=O)c1cccc(C(=O)Nc2ccc(Cl)cn2)c1,1,14,/,/,/,/,6.6,1,/,-15
O=C(NNc1ccccn1)c1ccccc1CC[N+](=O)[O-],-15,/,-2,0,-3.5,i,0.9,-5,-2.7,-1
CCN(Cc1ccccc1)S(=O)(=O)c1ccc2oc(C(=O)O)c(C)c2c1,-8,48,/,/,/,/,11,-7,/,-14
CN(C(=O)c1cc(S(=O)(=O)N2CCCCC2)c[nH]1)C1CCCCC1,11,-8,-7,-15,0.3,i,-2.1,2,1.8,-4
COc1ccc(S(=O)(=O)Nc2ccc(OCC(=O)O)cc2)c2ccccc12,-11,-6,14,5,-1.3,i,-0.5,2,-0.4,4
COC(=O)c1ccc(C(=O)OC)c(NC(=O)c2cccnc2)c1,-5,-4,/,/,/,/,4.0,/,/,-1
O=C(c1ccccc1)N(Cc1ccco1)C1CCS(=O)(=O)C1 (stereo not given),-11,-2,/,/,/,/,-4.0,-5,/,-9
Cc1cc(C)cc(NC(=S)N2CCN(c3ccccn3)CC2)c1,-9,-29,-22*,-17*,-4.4*,i,0.8,-5,2.3,-3
Cc1cc(C)cc(NS(=O)(=O)c2ccc(NC(=S)NC(=O)c3ccc(Br)o3)cc2)c1,/,-2,/,/,/,/,2.7,7,/,2

# Source: PubChem (Broad Institute)

# The list is partial, so the mix of outcomes need not match the whole.
